# Source: PubChem BioAssay (National Center for Advancing Translational Sciences (NCATS))
# GLA inh pH 4.5: inhibitors of human alpha-galactosidase A at pH 4.5 | AID 1467 | activity change, negative = inhibition, % at 105 µM | P06280 | 230,000 tested, under 10 active | purified enzyme, 4-MU-alpha-Gal fluorescence, pH 4.5; inconclusive = small, poorly fitted or top-dose-only inhibition, or a rising curve; inactive = flat fitted curve, though single readings scatter; no compound was filed as active;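 note: 0% = full activity with enzyme and -100% = basal without enzyme; dose as in the result columns while the protocol names 77 µM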
# Rango release inh: prevents RanGTP from dissociating the Rango-importin beta complex; actives 0.071% (n = 340,000); Biochemical FRET Rango-importin beta, RanGTP-induced dissociation; AID 540253; O95149+P62826; Potency, µM (titrated, usually from 46.1 µM), inactives show at the highest dose activity change, negative = inhibition; active means falling FRET ratio curve, often poorly fitted, with flat reads before Ran was added; inconclusive means other falling curves, or compound fluorescence or quenching; inactive means flat or rising ratio curve;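 note: potency is the fitted concentration of half-maximal effect; % of control where 0% means no effect; nearly all actives have a fitted effect of over 45% in size; -100% = wells without RanGTP and RCC1; the record marks most hits as doubtful in a second field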
#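 Rango FRET biosensor (snurportin-1 IBB flanked by N-terminal EYFP and C-terminal CFP10) at 0.1 uM, with 0.25 uM importin beta in PBS, 1mM DTT, 0.02% Tween-20, 0.1% BSA. 0.6 uM Ran, 2mM GTP and 0.2 uM RCC1 were then added for 45 min at room temperature. Inhibition read as loss of FRET rise.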
# Rango complex inh: prevents formation of the Rango-importin beta complex | Potency, µM (doses to about 92.2 µM), for the others: at the highest dose inhibition of complex formation | actives 0.031% (n = 340,000) | Q14974 | AID 540263 | Rango CFP/YFP FRET sensor + importin beta, 45 min; active = rising FRET ratio curve, often small or poorly fitted; inconclusive = mostly compound fluorescence or quenching in the first reads; inactive = flat curves in all reads;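 note: potency is the fitted concentration of half-maximal effect; 0% = DMSO wells and 100% = buffer wells lacking importin beta; nearly all actives have a fitted effect of over 15% in size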
# Target sequence (Q14974 whole entry, looked up): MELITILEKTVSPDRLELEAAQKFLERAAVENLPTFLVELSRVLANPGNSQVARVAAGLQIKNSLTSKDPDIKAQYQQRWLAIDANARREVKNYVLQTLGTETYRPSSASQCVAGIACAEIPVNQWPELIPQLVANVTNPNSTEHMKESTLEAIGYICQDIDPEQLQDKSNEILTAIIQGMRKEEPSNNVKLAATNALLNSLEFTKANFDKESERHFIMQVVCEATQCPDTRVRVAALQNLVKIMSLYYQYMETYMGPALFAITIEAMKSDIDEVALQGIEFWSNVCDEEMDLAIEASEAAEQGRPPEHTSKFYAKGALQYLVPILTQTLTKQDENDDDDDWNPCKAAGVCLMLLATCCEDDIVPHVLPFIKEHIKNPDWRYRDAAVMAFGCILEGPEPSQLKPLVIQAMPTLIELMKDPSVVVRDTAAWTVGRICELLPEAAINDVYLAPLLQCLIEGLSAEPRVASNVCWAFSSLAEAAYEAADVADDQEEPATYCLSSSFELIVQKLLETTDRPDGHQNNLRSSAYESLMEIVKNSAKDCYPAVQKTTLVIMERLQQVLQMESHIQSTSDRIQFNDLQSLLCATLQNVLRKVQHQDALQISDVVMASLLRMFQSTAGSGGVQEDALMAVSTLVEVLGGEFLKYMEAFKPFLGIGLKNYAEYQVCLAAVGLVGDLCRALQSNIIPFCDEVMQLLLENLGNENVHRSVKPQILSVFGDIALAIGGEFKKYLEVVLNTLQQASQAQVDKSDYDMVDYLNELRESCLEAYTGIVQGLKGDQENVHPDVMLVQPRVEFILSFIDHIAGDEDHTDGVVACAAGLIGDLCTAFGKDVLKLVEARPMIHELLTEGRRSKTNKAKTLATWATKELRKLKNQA
#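 FRET biosensor (snurportin 1 IBB flanked by EYFP and cerulean), 50 nM, with compound 5 min, then 0.125 microM importin beta in PBS, 1 mM DTT, 0.02% Tween-20, 0.1% BSA. CFP/YFP ratio read after 45 min at room temperature; pre-read flags interference.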
# miR-21 reporter: miR-21 reporter, rising signal; Potency, µM (doses to about 38.3 µM), for the others: at the top dose reporter change, positive = more light; HeLa miR-21 FLuc reporter, luciferase, 48 h; 340,000 tested, under 10 active; active = well fitted rising curve with a large enough effect; inconclusive = small, poorly fitted or top-dose-only effect; inactive = no such curve, though single readings can be large or run the other way;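 note: % of control where 0% means no effect; miR-21 action dims this reporter so a rising signal means less miR-21 action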
#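 Using DMEM plus 10% FBS, HeLa miR-21-FLuc cells are incubated with test compounds (final up to about 40uM) for 48 hours; firefly luciferase signal is then imaged following reagent-mediated lysis.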
# An asterisk follows results filed as active; u = inconclusive; x = no result given; & = joins results of further samples; [ ] = another dose, or the depositor's remark. Only part of the results is shown; count on the stated rates, not on these rows.
# Results follow in this order: GLA inh pH 4.5	Rango release inh	Rango complex inh	miR-21 reporter
1: COc1ccc(/C(C)=N/NC(=O)c2ccc(CSc3nncn3C)cc2)cc1
    -2	-13%	0.3%	-2%
2: Cn1cc(-c2ccccc2C(N)=O)c(=O)c2cc(Cl)ccc21
    14	10%	-1.6%	-3%
3: CC(C)NC(=O)Nc1ccc2c(c1)CC(=O)N([C@@H](C)CO)C[C@H](C)[C@@H](CN(C)C(=O)NC1CCCCC1)O2
    x	14%	-0.5%	x
4: COc1ccc(C)cc1-n1cnnn1
    -8	-1%	1.0%	-1%
5: Cn1c(CCNC(=O)c2ccco2)nc2cc(NS(=O)(=O)c3ccc(Cl)cc3)ccc21
    9	-11%	-4.5%	4%
6: COc1ccc(OC)c(-c2cc(C(=O)Nc3c(C)nn(Cc4ccc(Cl)cc4)c3C)no2)c1
    -10	12%	2.1%	0%
7: COc1ccc(Cl)cc1NC(=S)N(Cc1cccnc1)Cc1ccco1
    -8	2%	-0.3%	6%
8: Cc1ccc(S(=O)(=O)N2CCCC(C(=O)NC3CCCC3)C2)cc1Cl (stereo not given)
    x	4%	5.0%	1%
9: CN(C)c1nc(N)nc(Nc2ccccc2C#N)n1
    2	1%	4.4%	-11%
10: CN1CCC(=O)N([C@H](CSc2ccccc2)Cc2ccccc2)CC1
    x	-1%	-1.1%	-6%
11: Cc1c(N=C2SCC(=O)N2/N=C/c2ccccc2Cl)c(=O)n(-c2ccccc2)n1C
    -13	-9%	2.2%	-4%
12: CCN(CC)S(=O)(=O)c1csc(C(=O)NCc2ccccc2)c1
    1	10%	3.1%	1%
13: COc1ccc(NC(=O)c2cc3ccccc3o2)cn1
    x	-12%	4.0%	-50%
14: COc1ccccc1C(=O)NCC(=O)N/N=C(\C)Cc1ccccc1
    x	22%	-3.1%	-7%
15: Cc1cccc(CCNC(=O)CCNS(=O)(=O)c2cc(Br)cnc2N)c1
    x	31%	6.2%	11%
16: Cc1cc(NC(=O)CCC(=O)N(CC(C)C)C(C(=O)NC(C)(C)C)c2ccccc2Cl)no1 (stereo not given)
    x	16%	-0.4%	-3%
17: c1ccc2c(Nc3ccc4c(c3)OCCO4)c3c(nc2c1)CCCC3
    2	-15%	-1.6%	27%
18: COC(=O)c1ccn(CSc2cc(Cl)ccc2Cl)n1
    x	1%	-0.7%	x
19: CCCN(CCC)C(=O)C1CCCN(S(=O)(=O)c2ccc3c(c2)oc(=O)n3C)C1 (stereo not given)
    x	-4%	1.9%	-2%&-6%
20: CCOc1ccc(S(=O)(=O)Nc2nc3ccccc3nc2-n2ccc(=NC(=O)c3ccccc3C)cc2)cc1
    -12	u	u	0%
21: COc1ccc(N2CC(C(=O)Nc3ccc(S(=O)(=O)Nc4nccs4)cc3)CC2=O)cc1 (stereo not given)
    -7	15%	2.1%	1%
22: CCOC(=O)C1CCCN(C(=O)C2CCN(C(=O)Nc3ccccc3)CC2)C1 (stereo not given)
    x	0%	-0.7%	x
23: Nc1nc(-c2ccco2)nn1C(=O)c1ccc([N+](=O)[O-])cc1
    6	-5%	-0.6%	-3%
24: CCC(=O)NC(NC(=S)Nc1c(C)n(C)n(-c2ccccc2)c1=O)C(Cl)(Cl)Cl (stereo not given)
    0	1%	-0.1%	3%
25: Fc1ccc2nc(Nc3nc4c(F)cc(F)cc4s3)sc2c1
    -7	-13%	1.3%	-10%
26: Cc1c(CN2CCC(n3nccc3NC(=O)C3CCOC3)CC2)[nH]c2ccccc12 (stereo not given)
    x	10%	-2.5%	-5%
27: O=C(CSc1c2c(nc3cc(Cl)ccc13)CCCC2)NCCN1CCOCC1
    -9	3%	-0.2%	1%
28: Cc1cc(O)c(/C=N/c2ccccn2)c(=O)o1
    -10	u	u	-4%
29: CCOc1ccc2nc(Cl)c(C3CC(c4ccccc4)=NN3C(=O)c3ccco3)cc2c1 (stereo not given)
    3	x	x	-3%
30: CS(=O)(=O)N(CC(=O)NCCSCc1ccco1)c1ccc(Cl)cc1
    0	8%	-2.0%	-8%

# Full records from above. Order of values: GLA inh pH 4.5 | Rango release inh | Rango complex inh | miR-21 reporter
# COc1ccc(NC(=O)c2cc3ccccc3o2)cn1 is entered as x | -12% | 4.0% | -50%
# COc1ccccc1C(=O)NCC(=O)N/N=C(\C)Cc1ccccc1 is entered as x | 22% | -3.1% | -7%

# The listing continues.
# Results follow in this order: GLA inh pH 4.5	Rango release inh	Rango complex inh	miR-21 reporter
31: O=C(NNC(=O)c1ccccc1[N+](=O)[O-])c1csc(N2CCOCC2)n1
    x	-7%	5.0%	x
32: CCOc1ccc2[nH]c(=O)c(CN(Cc3cccs3)Cc3nnnn3C(C)(C)C)cc2c1
    2	-1%	-5.7%	-2%
33: CCOc1ccc(/C=N/NC(=O)c2ccccc2NC(=O)c2ccc(OC)cc2)cc1
    -1	17%	4.1%	-24%
34: O=C(O)CC(NS(=O)(=O)c1ccc2c(c1)OCCO2)c1ccccc1[N+](=O)[O-] (stereo not given)
    x	5%	-1.3%	x
35: CCc1c(C(=O)Nc2ccccc2)c(C)[nH]c(=S)c1C#N
    -2	-21%	u	1%
36: CC(=O)c1cccc(NC(=O)N2CCCC2C(=O)Nc2cc(C)ccc2C)c1 (stereo not given)
    5	-1%	-2.1%	-4%
37: O=C(Nc1ccccc1)C(=O)Nc1ccccn1
    8	6%	5.6%	-42%
38: CCOc1ccccc1Oc1c(C)oc2cc(OC(=O)c3ccco3)ccc2c1=O
    1	1%	2.8%	-1%
39: Cc1ccccc1-c1noc(-c2ccccc2F)n1
    -2	-7%	4.5%	-51%
40: CCc1nc(Nc2ccc(N3CCN(C(C)=O)CC3)cc2)c2oc3ccccc3c2n1
    -17	-1%	-4.2%	u
41: Cc1noc(COc2ccccc2OCC(O)CNC(C)(C)C)n1 (stereo not given)
    1	1%	4.1%	-3%
42: O=C(Nc1ccc(CN2CCOCC2)cc1)c1ccc(Cl)cc1Cl
    x	6%	0.2%	2%
43: CC(=O)OCC(=O)[C@@]1(O)CC[C@H]2[C@@H]3C[C@H](C)C4=CC(=O)C=C[C@]4(C)[C@H]3[C@@H](O)C[C@@]21C
    x	29%	-0.2%	-34%
44: O=c1c(Cc2ccc(Cl)cc2)c(O)ccn1Cc1ccccc1
    7	-9%	-0.9%	-1%
45: Cc1cccc(N(CC(=O)NCCSCc2ccccc2)S(C)(=O)=O)c1C
    -13	4%	u	11%
46: c1ccc2c(c1)CCCC2NC1=NCCC1 (stereo not given)
    3	12%	2.2%	-6%
47: CN(CC(O)COc1ccc2ccccc2c1)C1CCCCC1 (stereo not given)
    x	9%	-0.8%	-7%
48: CN(CCOc1ccccc1)C(=O)c1cc(COc2c(F)cccc2F)on1
    x	-8%	0.1%	-19%
49: COc1ccc(C(=O)Nc2cc(C)on2)cc1OC
    x	16%	0.6%	2%
50: CN(Cc1nc2ccccc2n1C)C(=O)c1cccs1
    -2	-6%	-1.1%	1%
51: c1ccc(COn2c(-c3ccccc3)nc3c2CCc2nonc2-3)cc1
    3	-1%	1.2%	-6%
52: CC12CN3CC(C)(CN(C1)C3c1ccc(Br)cc1)C2 (stereo not given)
    8	-3%	u	1%
53: O=C(NC1CCN(Cc2nnnn2CCc2ccccc2)CC1)c1ccccc1F
    -12	-2%	u	1%
54: COCCn1c(N)c(C(=O)NCc2cccs2)c2nc3ccccc3nc21
    29	u	u	3%
55: CS(=O)(=O)N(CC(=O)NC1CCCCCC1)Cc1ccc(Cl)cc1
    -2	-4%	-2.4%	-1%
56: CC(=O)Oc1ccc(N2C(=O)C3C4C=CC(O4)C3C2=O)cc1 (stereo not given)
    2	-5%	-3.4%	-2%
57: CC(=O)c1c(C)[nH]c(C(=O)OC(C)C(=O)Nc2ccc(C)c(S(=O)(=O)N3CCOCC3)c2)c1C (stereo not given)
    x	0%	-2.4%	x
58: Cc1ccc(NC(=O)CSc2nnc(-c3ccncc3)s2)cc1
    x	36%	3.2%	0%
59: CN(C)CCCCOc1cccc(Br)c1
    4	1%	-1.0%	-11%
60: CCCCN(CCCC)CCCNC(=O)c1ccc2nc(-c3ccccc3NC(C)=O)c(=O)[nH]c2c1
    -5[21.1 µM]	-2%	0.0%	-1%

# As entered above.
# In Rango release inh, compound 49 reads 16%
# In miR-21 reporter, compound 37 reads -42%

# The list goes on.
# Results follow in this order: GLA inh pH 4.5	Rango release inh	Rango complex inh	miR-21 reporter
61: N#Cc1ccccc1OCC(=O)OCC(=O)NC1CCCCCC1
    x	-4%	-1.1%	x
62: Cc1ccc(C(=O)OCc2nnc(-c3ccccc3)o2)o1
    -9	9%	4.8%	-10%
63: O=S(=O)(NCCc1cn2ccccc2n1)c1ccc(F)c(C(F)(F)F)c1
    -9	-15%	-0.6%	-2%
64: Cc1ccc2[nH]c3c(=O)n(N)c(=O)[nH]c3c2c1
    4	9%	-3.5%	-11%
65: CCN(CC)Cc1c(O)ccc2c(-c3ccccc3)cc(=O)oc12
    -8	u	u	-6%
66: COc1ccc(C(=O)NCCN2CCOCC2)c(OC)c1OC
    -1	23%	2.5%	-5%
67: CC(C)CCNC(=O)c1cccc(S(=O)(=O)N2CCc3ccccc32)c1
    -12	8%	-0.4%	12%
68: Cc1nc(-c2ccc(Cl)cc2)sc1C1(C)CC(c2c(Cl)cccc2Cl)=NO1 (stereo not given)
    3	u	-1.3%	-1%
69: CCCn1ncc(CN2CCC(Oc3ccc(C(=O)N4CCCC4)cc3)CC2)c1C
    x	3%	-2.5%	-1%
70: CN1CCN(S(=O)(=O)c2cccc(C(=O)Oc3ccccc3Cl)c2)CC1
    x	-5%	-2.5%	-2%
71: CCNc1nc(NCC)nc(OCCNS(=O)(=O)c2ccccc2)n1
    -3	30%	2.2%	-4%
72: O=C(COc1cccc(C(F)(F)F)c1)NNC(=O)Cc1ccc(S(=O)(=O)N2CCOCC2)s1
    x	14%	-1.8%	x
73: Cc1cccnc1NC(=O)c1ccc(Cl)c(S(=O)(=O)N2CCCCC2)c1
    x	-14%	-0.3%	x
74: COc1cc(OC)cc(-c2nnc(SCC(=O)N(C(C)C)C(C)C)o2)c1
    5	-15%	4.2%	0%
75: COc1ccc(S(=O)NC2CCCCC2)c(OC)c1C (stereo not given)
    5	0%	1.6%	0%
76: CCOC(=O)c1c(C)[nH]c(C(=O)N(C)Cc2cccc(OC)c2OC)c1C
    x	44%	6.1%	12%
77: O=C(CN1C(=O)CCC1=O)Nc1ccc(Br)cc1
    -2	-6%	1.7%	13%
78: CON(C)c1nc(NCC(C)C)nc(OCC#N)n1
    6	-9%	-1.0%	-6%
79: CC(=O)N(C1=C(O)c2ccccc2C(=O)C1=O)C1CCCCC1
    x	3%	2.6%	-1%
80: N#Cc1ccccc1NC(=O)COC(=O)COc1ccccc1[N+](=O)[O-]
    6	-4%	-9.2%	-1%
81: CCn1cc(C2=NOC(C(=O)O)C2)c(C)n1 (stereo not given)
    2	-3%	1.6%	-4%
82: COCCOc1ccc(C(F)(F)F)cc1NC(=O)c1ccc(F)cc1
    -10	-17%	0.5%	-11%
83: Cc1ccc(C(=O)NCCNC(=O)c2ccco2)cc1C
    x	-2%	0.0%	-8%
84: CCN(c1ccccc1)S(=O)(=O)c1ccc(OC)c(NC(=O)c2cccs2)c1
    -3	0%	5.4%	19%
85: COC(=O)c1c(-c2ccccc2)c(-c2ccccc2)nn(C)c1=O
    x	-12%	3.8%	8%&1%
86: Cc1nn(CC(=O)N2CCOCC2)c(=O)c2nn(-c3ccccc3)c(C)c12
    x	13%	-0.7%	-1%
87: COc1ccc(N2C(=O)CSC2c2cccc(F)c2)cc1 (stereo not given)
    x	-1%	-2.1%	-1%
88: C[C@H](CO)N1C[C@H](C)[C@@H](CN(C)C(=O)Nc2ccc(C(F)(F)F)cc2)Oc2c(NS(=O)(=O)c3cn(C)cn3)cccc2C1=O
    x	23%	-0.9%	x
89: Cc1ccc(N2C(=O)c3ccc(C(=O)O)cc3C2=O)c(C)c1
    2	-10%	-1.6%	-1%
90: COc1cc(-c2noc(-c3ccccc3C(=O)NCc3ccco3)n2)cc(OC)c1OC
    8	-1%	-3.4%	16%
91: CCOC(=O)c1c(NC(=O)CSc2n[nH]c(CNc3ccccc3)n2)sc(C)c1C
    -1	-9%	-1.5%	-4%
